# Screens (PubChem BioAssay)
# PrP UTR inh = suppresses PrP 5' UTR mRNA reporter expression | 340,000 tested, 0.35% active | inhibition, % (test concentration not listed) | cell-based PrP 5' UTR mRNA reporter, plate reader;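 active = every replicate at 50% or more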;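 note: 0 = median of the neutral control wells; tested in H4 reporter cells; numbers are from one replicate; inactives centre near -14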
# Autofluor counter = flagged as autofluorescent in microsphere protease counterscreen; AID 624483; 360,000 tested, 3.1% active; fluorescence intensity (test concentration not listed); compound autofluorescence counterscreen, microsphere flow cytometry; stronger effect = higher value;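 active = at least 3 SD above the mean of all compounds, about 16000 in these data; inconclusive = too few beads counted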;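 note: 100 nL of 1 mM stock went into each well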
# ugtP null kill = growth inhibition of S. aureus ugtP deletion strain; S. aureus RN4220 ugtP deletion, OD600 growth, 16 h; some inactives read as strong as hits; growth inhibition, % (test concentration not listed); 330,000 tested, 0.54% active; AID 1259309;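 active = z-score under -3 and OD600 up to 0.15 on both plates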;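 note: plate controls were untreated wells for no effect and antibiotic for full effect; wells of about 80 µL received 100 nL stock; the first replicate is given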
# Sa RN4220 lethal = S. aureus RN4220 growth inhibition; OD600, 16 h; inhibition, % (no concentration beside the values); 330,000 tested, 0.33% active; AID 1259311;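 active = z-score of -3 or lower and OD600 up to 0.18 on both plates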;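 note: plate controls were untreated cells for no effect and reference antibiotic for full effect; stock transfer was 100 nL into about 80 µL; one replicate is shown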
# BJeLR viability = kills HRASV12-expressing BJeLR cells. BJeLR (HRASV12) viability, CellTiter-Glo ATP luminescence, 48 h; reference of the scale not given here. 300,000 tested, 0.17% active. AID 1554. inhibition, % (concentration not given with the values);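 active = replicate mean above 50%; inconclusive = above 50% but judged a plate artefact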;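 note: 50 nL library stock added to about 25 µL; numbers are from one replicate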
# Mtb hypoxia rep = inhibitors of hypoxia-regulated fluorescent reporter in Mycobacterium tuberculosis; AID 1159583; fluorescence inhibition, % (test concentration not listed); 300,000 tested, 0.1% active; M. tuberculosis hypoxia-regulated fluorescent reporter, fluorescence;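 active = 35 to 45% if threefold the growth effect, above 45% if 1.5-fold the growth effect; inactive = the rest, general growth blockers included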;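 note: wells of about 50 µL received 100 nL stock; 0% = vehicle wells and 100% = reference inhibitor wells; whole bacteria with a GFP reporter of the hypoxia response; strong numbers were not always called active; many hits fall short of the cut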
# Mtb hypoxia rep growth = further read-out of Mtb hypoxia rep, marked with its call; growth inhibition, %; measured here: M. tuberculosis growth (absorbance);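 0% = vehicle and 100% = reference antibiotic; read after six days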
# Active calls of the source: *; ? = inconclusive; nt = no result given. An unsorted share of the library; any-hit rate near 4.1%.
SMILES,PrP UTR inh,Autofluor counter,ugtP null kill,Sa RN4220 lethal,BJeLR viability,Mtb hypoxia rep,Mtb hypoxia rep growth
Cc1ccc(-c2n[nH]c(Cc3ccccc3)n2)cc1,-64.9,5096,8.4,1.6,2.9,9.2,1.9
COc1ccc(C2(C#N)CC[N+](C)(C)CC2)cc1,-6.0,2197,-5.5,-14.1,-0.9,nt,nt
O=C1/C(=C/c2ccc(F)cc2)SC(=S)N1NS(=O)(=O)c1ccccc1,-5.1,3390,48.7,62.0,-8.4,2.6,15.6
COc1ccccc1CCNC(=O)CNC(=O)Cc1cccc2ccccc12,-16.1,5432,1.7,-1.0,4.2,7.7,-3.8
COc1ccc(N(CC(=O)Nc2ccc3c(c2)OCCO3)S(C)(=O)=O)c(OC)c1,-9.1,3442,2.7,3.7,5.4,11.4,3.8
CN(C)c1ccc(/C=N/NC(=O)c2ccccc2Cl)cc1,-51.3,2537,nt,nt,8.9,nt,nt
O=C(O)CC1(CC(=O)NCc2ccc(F)cc2)CCCCC1,nt,3594,-1.1,1.7,-4.2,-9.6,6.1
O=C1CC2(CCCCCC2)Oc2ccccc21,-21.7,4035,1.4,4.6,-0.7,12.4,4.0
CCCn1c(Sc2nc3c(c(=O)[nH]c(=O)n3C)n2CCC)nc2c1c(=O)[nH]c(=O)n2C,-10.4,5278,2.1,-5.5,-7.5,nt,nt
Cc1cc2cc(CNC(=S)NC3CCCCC3)ccc2[nH]1,-5.1,3319,0.0,3.3,-4.3,2.1,3.7
C=CCOc1ccc(C(O)=C2C(=O)C(=O)N(CCCOC)C2c2ccc(O)c(OC)c2)cc1 (configuration not stated),nt,nt,8.4,8.8,nt,4.5,8.1
CC12CCC3c4ccc(OP(=O)(N5CC5)N5CC5)cc4CCC3C1CCC2=O (configuration not stated),-19.7,3904,1.8,4.5,nt,11.1,11.2
Cc1ccc(NS(=O)(=O)c2ccc(-c3cnc(C4CC4)o3)cc2)c(C)c1,17.0,5660,-9.9,22.5,45.5,0.5,-6.0
Cc1cccc(Nc2nnc(SCC(=O)NCC3CCCO3)s2)c1C (configuration not stated),-11.6,3623,1.8,1.6,nt,10.7,13.5
COc1cccc(NC(=O)c2ccc(N3C(=O)C4CC=CCC4C3=O)cc2)c1 (configuration not stated),-17.1,3668,-9.3,-2.4,2.4,-5.3,-13.6
Cc1ccc(NC(=O)CNC(=O)Cn2cnc3sc(C)c(C)c3c2=O)cc1F,-2.3,5494,-1.6,7.1,-1.7,-4.4,-1.8
CCCCN1C(=O)C(NC(=O)CC(C)C)(C(F)(F)F)C2=C1CC(C)(C)CC2=O (configuration not stated),-7.2,4073,-1.0,1.4,-2.6,-5.1,9.7
O=C(NCc1ccccc1)c1cccnc1N1CCOCC1,-18.6,2927,-1.4,1.8,6.0,4.0,-6.3
O=C(N/N=C/c1cccc2nccnc12)c1ccccc1O,-16.9,3389,nt,nt,7.1,nt,nt
O=C(NCCN1CCOCC1)c1cc2ccccc2o1,-5.5,8806,-0.7,2.0,-4.1,6.5,1.1
Cc1ccc(SCC(Cc2ccccc2)N2CCN(C)CCC2=O)cc1 (configuration not stated),nt,nt,-10.5,1.5,nt,-3.2,-6.8
O=C(CN1CCSC1=NCc1ccccc1)c1ccccc1,-19.7,2573,12.3,5.3,4.5,-0.5,3.8
Cc1cnc([N+](=O)[O-])n1CCOC(=O)NC(=O)c1c(F)cccc1F,-4.6,4771,7.7,16.8,-11.4,-6.3,-1.2
CCOC(=O)Cc1c(C)nc2c(-c3ccc(Cl)cc3)cnn2c1C,-10.3,6380,-1.7,-6.0,-2.1,-1.4,7.7
CC(/C=N/n1cnnc1)=C\c1ccccc1,-1.3,6449,nt,nt,-10.5,nt,nt
c1ccc2c(c1)c1cccc3ccc4cccc2c4c31,-6.3,4772,9.8,-7.1,nt,-0.8,9.3
COc1ccccc1NC(=O)CSc1nnc2ccc(-c3ccccn3)nn12,-21.1,4317,-0.8,0.2,-2.7,-11.8,-8.4
CCCn1c(C2CCCN2c2nc(-c3cccc(Br)c3)cs2)nc2ccccc21 (configuration not stated),-4.7,4137,1.5,-7.9,7.0,5.0,-0.6
COc1ccccc1-n1c(SCC(=O)N2CCOCC2)nc2cccnc21,-0.2,3171,-1.5,-1.1,-14.5,4.6,9.8
CSc1nccc(-c2sc(SC)c(C#N)c2-c2ccccc2)n1,-7.6,nt,46.2,3.5,7.6,1.0,2.6
CCCN1C(=O)/C(=C/c2ccc(N3CCOCC3)cc2)NC1=S,-6.0,6539,5.5,-0.2,-2.8,3.9,0.7
C[C@@H](C(=O)Nc1ccc2ccccc2c1)[C@@H]1C[C@@]1(C)[C@@H](NC(=O)OCc1ccccc1)c1ccccc1,-6.9,3897,nt,nt,-8.9,nt,nt
S=C1NCCOCCOCCNC(=S)N2CCOCCOCCN1CCOCCOCC2,-6.9,3279,1.7,3.8,-5.4,4.2,11.5
COC(=O)c1ccc(NC(=S)Nc2ccc(O)cc2)cc1,0.2,4405,-2.5,-0.2,5.0,5.3,9.8
Cc1cc(OCC(=O)NCCCN2CCOCC2)cc(C)c1Cl,-10.0,?,-7.6,4.0,-1.6,5.0,10.0
CCc1n(CC(O)COCC2CC=CCC2)c2ccccc2[n+]1C (configuration not stated),-17.5,3969,4.7,11.5,-11.7,8.0,12.2
CC(C)COc1cccc(-c2cc(C(=O)Nc3ccon3)c3ccccc3n2)c1,-7.1,5871,0.1,-5.7,9.1,7.1,16.1
O=C(O)c1cc(S(=O)(=O)N2CCN(S(=O)(=O)c3ccccc3)CC2)ccc1Cl,-21.1,3729,4.3,2.7,3.5,-15.2,2.3
COc1ccc(N/C(=N/c2nc(C)cc(C)n2)NC(=O)c2ccccc2)cc1,-25.3,3577,nt,nt,-4.5,nt,nt
COc1ccc2nc(SCC(=O)NC(C)C)[nH]c2c1,6.6,6403,8.1,4.0,4.7,5.5,3.2

# An excerpt from above in order of number of heavy atoms, lowest first.
SMILES,PrP UTR inh,Autofluor counter,ugtP null kill,Sa RN4220 lethal,BJeLR viability,Mtb hypoxia rep,Mtb hypoxia rep growth
CCCN1C(=O)/C(=C/c2ccc(N3CCOCC3)cc2)NC1=S,-6.0,6539,5.5,-0.2,-2.8,3.9,0.7
COc1ccc(N/C(=N/c2nc(C)cc(C)n2)NC(=O)c2ccccc2)cc1,-25.3,3577,nt,nt,-4.5,nt,nt
CCCn1c(C2CCCN2c2nc(-c3cccc(Br)c3)cs2)nc2ccccc21 (configuration not stated),-4.7,4137,1.5,-7.9,7.0,5.0,-0.6

# The listing continues:
SMILES,PrP UTR inh,Autofluor counter,ugtP null kill,Sa RN4220 lethal,BJeLR viability,Mtb hypoxia rep,Mtb hypoxia rep growth
CCOCCCNC1=C(Cl)C(=O)c2ccccc2C1=O,-31.2,4720,12.9,29.0,-7.1,-11.9,0.5
CNS(=O)(=O)c1cccc(C(=O)OCC(=O)N2c3ccccc3NC(=O)C2(C)C)c1,-21.0,nt,-1.4,-0.5,nt,0.6,-2.7
COc1ccc(NC2CCCN(C(=O)c3ccc(C(C)=O)cc3)C2)cc1 (configuration not stated),0.2,4560,5.9,0.8,0.2,4.9,4.9
CCCCN(C)CCCNC(=O)c1cn(CC)c2ccc(S(=O)(=O)N3CCc4ccccc4C3)cc2c1=O,0.1,4687,0.5,3.1,6.6,-1.2,10.3
N=C(N)CCCOc1ccccc1-c1ccccc1,-23.0,2156,nt,nt,2.3,nt,nt
CC(C)CCCN1C(Nc2ccccc2)=NC[C@@H]1Cc1ccccc1,-14.5,3740,nt,nt,-6.8,nt,nt
CCOc1ccc(S(=O)(=O)N(CC(=O)N/N=C/c2cccs2)c2ccc(C)cc2)cc1,-21.0,7321,nt,nt,1.2,nt,nt
CCOC(=O)Cn1nnnc1C,-16.5,5110,13.5,0.4,36.1,8.3,2.4
CC(=O)C1=C(C)NC(SCC(=O)Nc2nccs2)=C(C#N)C1c1ccccc1Cl (configuration not stated),-49.7,2562,nt,nt,-21.4,nt,nt
COc1ccc(CCNC(=O)COC(=O)c2ccc(F)c(S(=O)(=O)N3CCOCC3)c2)cc1,-34.9,2884,7.5,1.9,nt,4.6,-2.7
O=C(CSc1ccccc1)NCC1(N2CCOCC2)CCCCC1,-5.4,nt,2.7,2.4,12.6,1.7,1.5
CCCc1c(O)nc(SCC(=O)NCc2ccco2)[nH]c1=O,-24.5,4668,10.4,7.2,4.0,9.6,2.0
O=C(CSc1ncn[nH]1)N1CCCCC1,-24.7,4675,-6.0,-3.7,-4.0,-8.5,9.9
Cc1cccn2c(=O)c(/C=C3\SC(=S)N(CC(C)C)C3=O)c(NCCCOC(C)C)nc12,-8.5,15223,2.7,2.3,nt,7.4,3.4
Cc1nn(-c2ccccc2)c(C)c1/C=N/NC(=O)c1cc(-c2cccc3ccccc23)n[nH]1,-3.6,2220,nt,nt,-5.4,nt,nt
CC(C)c1ccc(/C=C/C(=O)N2CCc3ccccc3C2)cc1,-27.5,8257,4.0,1.3,0.2,6.2,4.7
CCCCOC(=O)c1cc(-c2ccc(/C=N/n3cnnc3)o2)ccc1Cl,-26.5,3317,nt,nt,5.1,nt,nt
COc1cc(NS(=O)(=O)c2ccc(F)cc2)c(OC)cc1NC(=O)C1CC1,nt,nt,-1.2,6.1,3.3,13.8,8.3
COCCOC(=O)C1=C(C)NC(=O)NC1c1c(Cl)nc2ccccn2c1=O (configuration not stated),-27.8,2157,2.0,0.9,4.0,-1.6,-25.4
CCCNC(=O)c1c(N)n(CC2CCCO2)c2nc3ccccc3nc12 (configuration not stated),-8.4,10001,3.1,-1.3,-9.2,1.1,5.5
COCCN1CCN(C(=O)c2cc(COc3ccc(F)c(F)c3)on2)CC1,-22.8,5813,2.7,1.5,8.3,-2.2,-5.3
O=C(N/N=C/c1ccccn1)c1cccc(S(=O)(=O)Nc2ccccc2Cl)c1,-42.0,4091,nt,nt,1.8,nt,nt
COc1ccc(S(=O)(=O)N(CCc2ccccc2)CC(=O)N2CCOCC2)cc1,-10.8,5935,0.9,4.5,-8.2,10.8,3.4
O=C(CN1CCN(S(=O)(=O)c2ccc(F)cc2)CC1)N1CCOCC1,-13.4,4372,4.5,3.4,2.0,9.3,0.4
CCC(=O)Nc1cc2nn(-c3ccc(C)cc3)nc2cc1C,67.6*,4582,2.2,2.0,-5.6,-5.5,3.6
CCc1nn(CC(=O)N2CCN(c3ccc(OC)cc3)CC2)c(=O)c2cc3occc3n12,-5.8,4683,-0.4,2.9,6.4,15.3,5.2
CC[C@]12c3[nH]c4ccc(OC)cc4c3CCN1C(=O)C(CC(=O)NCCCn1ccnc1)C[C@@H]2C(=O)N1CCN(C(=O)C2CC2)CC1 (some centres not stated),-26.8,4220,2.8,4.4,nt,-10.2,4.7
CC(NC(=O)Cc1ccccc1)c1nc2ccccc2[nH]1 (configuration not stated),-8.1,6344,2.8,3.0,-3.4,3.3,5.4
Cc1c(Cl)ccc2sc(NC(=O)C3CC3)nc12,-23.0,4664,-15.9,-4.1,8.7,-4.2,2.6
COc1cc(/C=N/Nc2nc(C)cc(C)n2)cc(OC)c1OC,-30.9,3969,nt,nt,14.1,nt,nt
O=C(Nc1sc2c(c1C(=O)NCCCO)CCCC2)c1ccccc1,-24.9,4160,-21.0,1.8,-5.1,-7.5,8.5
Cc1nn(CC(=O)NC2(C)CCS(=O)(=O)C2)c(C)c1S(=O)(=O)N(C)C (configuration not stated),-18.3,nt,11.4,5.7,nt,5.4,2.5
CC(C)CNC(=O)/C=C/c1cccs1,-11.4,2900,2.1,2.6,-12.0,nt,nt
CC(=O)c1cccc(NC(=O)CCCN(C)S(=O)(=O)c2ccc(F)cc2)c1,-21.5,3290,1.2,2.2,-2.2,3.3,1.1
Cc1[nH]c2ccccc2c1C(=O)COC(=O)c1c(-c2ccccc2)noc1C,-13.1,2534,-16.5,0.2,nt,10.7,0.1
COc1ccccc1/C=C/C(=O)OCC(=O)NC1CC1,-9.5,5760,7.7,2.6,nt,10.7,-0.5
CCOc1cccc(CN2CCCC(N3CCc4cc(OC)c(OC)cc4C3)C2)c1O (configuration not stated),-19.1,5002,nt,nt,4.1,nt,nt

# 2 neighbouring records already listed, quoted:
SMILES,PrP UTR inh,Autofluor counter,ugtP null kill,Sa RN4220 lethal,BJeLR viability,Mtb hypoxia rep,Mtb hypoxia rep growth
COCCN1CCN(C(=O)c2cc(COc3ccc(F)c(F)c3)on2)CC1,-22.8,5813,2.7,1.5,8.3,-2.2,-5.3
O=C(N/N=C/c1ccccn1)c1cccc(S(=O)(=O)Nc2ccccc2Cl)c1,-42.0,4091,nt,nt,1.8,nt,nt
